MbtI inh = blocks the Mycobacterium tuberculosis siderophore enzyme MbtI; purified MbtI enzyme, fluorescence intensity read-out; P9WFX0; inhibition, %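 (about 17 µg/mL by stock and volumes)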; AID 493033; 0.89% of 100,000 active;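 active = above 50% in both replicates, above 80% if mildly self-fluorescent; inactive = the rest, strongly fluorescent compounds included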;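 also: 0% = mean of negative and 100% = mean of positive controls; one replicate is shown; some compounds called inactive have numbers as strong as hits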
Target sequence (P9WFX0 whole entry, looked up): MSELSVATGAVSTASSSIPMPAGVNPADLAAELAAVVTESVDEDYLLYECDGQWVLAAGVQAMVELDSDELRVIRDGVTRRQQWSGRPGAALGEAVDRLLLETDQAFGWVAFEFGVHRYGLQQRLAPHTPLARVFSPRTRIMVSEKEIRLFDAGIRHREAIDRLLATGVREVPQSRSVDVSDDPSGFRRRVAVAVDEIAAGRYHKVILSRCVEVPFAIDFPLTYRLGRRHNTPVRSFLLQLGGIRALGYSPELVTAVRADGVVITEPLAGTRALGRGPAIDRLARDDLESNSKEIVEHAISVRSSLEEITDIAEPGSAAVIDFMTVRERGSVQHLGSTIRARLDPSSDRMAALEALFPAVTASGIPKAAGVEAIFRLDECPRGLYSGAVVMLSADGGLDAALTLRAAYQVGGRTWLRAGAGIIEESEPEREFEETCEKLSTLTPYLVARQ
Mtb MenB inh = blocks the Mycobacterium tuberculosis MenB enzyme. MenB enzyme assay, absorbance read-out; some hits fall short of the stated cut. 0.43% of 100,000 active. AID 540299. inhibition, %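 (about 12 µg/mL by stock and volumes)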. P9WNP5;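 active = mean of two replicates above 30%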;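 also: 0% = no compound and 100% = wells with inactive enzyme; the first replicate is given; strong numbers were not always called active; inactives centre near -10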
Polio RdRp inh = inhibitors of poliovirus RNA polymerase binding and polymerization | P03300 | poliovirus polymerase elongation, fluorescence polarization; hits give low values | % elongation, % (compound at 16.7 µg/mL) | 0.66% of 150,000 active | AID 588519; in the data active = % elongation below about 90%; also: some results filed as inactive read as strong as hits
Target sequence (P03300 1749-2209 limits assumed): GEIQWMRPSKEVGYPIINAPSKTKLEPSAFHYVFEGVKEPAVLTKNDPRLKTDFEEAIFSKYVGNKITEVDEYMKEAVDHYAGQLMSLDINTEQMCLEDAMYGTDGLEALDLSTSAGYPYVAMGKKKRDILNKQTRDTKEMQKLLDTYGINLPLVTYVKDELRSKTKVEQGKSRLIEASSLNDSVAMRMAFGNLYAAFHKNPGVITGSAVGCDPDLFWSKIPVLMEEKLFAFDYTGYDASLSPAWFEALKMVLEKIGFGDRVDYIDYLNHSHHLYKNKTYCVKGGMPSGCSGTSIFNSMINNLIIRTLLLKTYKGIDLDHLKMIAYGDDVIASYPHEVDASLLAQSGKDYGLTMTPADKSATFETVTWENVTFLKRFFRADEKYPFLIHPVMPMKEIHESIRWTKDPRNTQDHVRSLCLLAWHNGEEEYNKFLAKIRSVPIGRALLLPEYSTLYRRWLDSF
Polio RdRp inh intensity = second read-out of Polio RdRp inh, no call of its own (marks repeat the call); % elongation; measured here: total intensity read-out; formula for this scale not given here;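 total fluorescence in place of polarization; lower means less elongation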
* marks the source's active call; other numbers are inactive results; i = inactive; . = no result given; & = joins results of further samples. Rows are unselected; overall some 1.9% were active at least once.

The opening 2 entries, to show the layout:
SMILES	MbtI inh	Mtb MenB inh	Polio RdRp inh	Polio RdRp inh intensity
Cc1c2c(=O)n(-c3ccccc3)[nH]c2cc(=O)n1CC1CCCO1 (stereo not given)	-5	-132	100	101
Cc1cccc(OCC(=O)O/N=C(\N)c2ccncc2)c1	-5	-19	103	103

All compounds of this part, repeating the preview:
SMILES	MbtI inh	Mtb MenB inh	Polio RdRp inh	Polio RdRp inh intensity
Cc1c2c(=O)n(-c3ccccc3)[nH]c2cc(=O)n1CC1CCCO1 (stereo not given)	-5	-132	100	101
Cc1cccc(OCC(=O)O/N=C(\N)c2ccncc2)c1	-5	-19	103	103
O=C(NCc1ccccc1Cl)C1CCCN1C(=O)NCc1ccccc1 (stereo not given)	-10	-23	101	101
CCN1CCN(C(=O)c2cc3cc(OC)ccc3oc2=O)CC1	69	-23	100	103
CCOC(=O)C1(c2ccc(OC)cc2)CCOCC1	-14	-2	102	103
CNC(=O)C1=C(C)NC(=O)NC1c1cccs1 (stereo not given)	-3	1	100	99
O=C(OCn1nnc2ccccc2c1=O)c1ccc(S(=O)(=O)N2CCOCC2)cc1	-5	-33	104	108
O=C(Oc1ccc2c(c1)OCO2)c1ccco1	0	4	99	106
CCOc1cc(N2CCOCC2)c(OCC)cc1NC(=O)CCNS(=O)(=O)c1cc(C)ccc1C	-4	12	103	112
CC(=O)NCC(c1cccs1)N1CCc2ccccc21 (stereo not given)	-8	-11	104	108
O=S(=O)(Nc1ccc2nc[nH]c2c1)c1ccccc1	3	24	98	102
CCN(C(=O)CCc1nc(-c2ccccc2F)no1)c1ccc(C)c(C)c1	-3	-30	104	105
CCC(C)NC(=O)CSc1nnc(Nc2ccc(C(C)C)cc2)s1 (stereo not given)	19	4	101	104
CC(C)(C)OC(=O)NN=C1CCCC1	-14	-2	102	101
Cn1c(=O)[nH]c(=S)c2nc(-c3ccc(F)cc3)cnc21	3	-23	104	109
CC(C)(C)c1nc(C#N)c(N2CCC(C(N)=O)CC2)o1	.	2	104	110
O=C(NC1CCCC1)c1noc2ncnc(N3CCOCC3)c12	-27	1	102	103
CC(=O)Nc1ccc(/C=N/NC(=S)Nc2cccnc2)cc1	16	-40	99	97
COc1ccccc1NC(=O)Nc1ccc2c(c1)nc(C)n2C	-20	-26	104	103
N#Cc1c(-c2ccccc2)cc2nc3ccccc3n2c1N	-66	-14	105	104
CN(C)S(=O)(=O)c1ccc(N2CCCC2)c(C(=O)OCCCOc2ccc(F)cc2)c1	0	-42	105	100
O=S1(=O)CCC(N/N=C/c2ccccc2O)C1 (stereo not given)	-2	-28	20*	43*
Fc1ccc(NC(=S)Nc2ccccc2)cc1	.	-3	103	112
Cc1cccn2c(=O)c3cc(C(=O)N4CCN(C)CC4)c(=N)n(Cc4cccnc4)c3nc12	i	-183	100	100
CNC(=O)c1cc(S(=O)(=O)N2CC(C)OC(C)C2)ccc1N1CCOCC1 (stereo not given)	-1	-11	102	103
O=S(=O)(c1cccc(C(F)(F)F)c1)N1CCCCC1	-9	-11	98	101
CCOC(=O)c1sc2nc(CNC(C)C)nc(NC(C)C)c2c1C	103	9	91	91
CC(C)NC(=O)CCCc1ccccc1	-8	-21	101	102
COC(=O)c1ccc(C2C3=C(Nc4nnnn42)C(C2CCCCC2)CCC3)cc1 (stereo not given)	0	8	102	107
CCn1c(SCc2nnc(-c3ccccc3)o2)nnc1-c1ccccc1	4	-2	104	113
CCNC(=O)c1c(O)c2cccc3c2n(c1=O)CC3	-13	-14	105	108
CC(=O)N1CCN(c2ccc(Oc3ccc(C(F)(F)F)cn3)cc2)CC1	-1	1	103	112
O=S(=O)(/C=C/c1ccccc1)N1CCOCC1	11	-9	101	103
O=C(NCCOc1nnc(-c2ccccc2)o1)c1c(F)cccc1F	-18	-27	105	101
CCOC(=O)C1=C(C)N(c2ccc(OC)cc2)C(=O)/C1=C\c1ccco1	-6	3	78	129
NC(=O)COC(=O)CC1CC2CCC1C2 (stereo not given)	-6	-2	102	101
COC(=O)c1sc(NC(C)=O)nc1C	16	-2	99	107
COCCn1c(C)cc(C(=O)CSc2nc(-c3ccccc3)cs2)c1C	5	-13	100	106
CC(C)n1c(NCc2ccccc2)nc2ccccc21	.	-15	103	104
Cn1cnnc1SCC(=O)N(CC1CCCO1)c1nc(-c2ccc(Br)cc2)cs1 (stereo not given)	-8	-18	106	108
CCCCc1cc(O)c(CCCC)c(O)c1	-14	-65	103	103
Nc1cc(C(=O)O)c2ccccc2n1	44	21	103	104
CCN(c1ccc(NC(=O)COC(=O)c2ccc(N(C)C)cc2)cc1)C(C)C	-2	-8	100	105
NS(=O)(=O)c1ccc(CCNC(=O)Nc2cccc(Cl)c2)cc1	6	6	101	103
CCOC(=O)c1ccc(N2C(=O)C(C)C(Cc3cc(C)cc(C)c3)C2=O)cc1 (stereo not given)	-5	-21	104	104
Cc1ccc2c(CN3C(=O)C4CC=CCC4C3=O)cc(=O)oc2c1C (stereo not given)	1	.	102	98
CCOC(=O)c1oc2ccc(Br)cc2c1CSc1nnc(N)s1	-12	-9	97	133
COc1ccc(-c2noc(CC(=O)NC3CC3)n2)cc1	-21	1	102	105
O=C(OCN1C(=O)c2ccccc2C1=O)c1ccc(-n2cnnn2)cc1	-9	-23	98	105
COC(=O)c1cc(COC(=O)c2ccc(Cl)cc2)oc1C	-4	-4	103	99
OCc1nnc2c3ccccc3c(-c3ccccc3)nn12	43	0	105	104
CNS(=O)(=O)c1cccc(C(=O)NC2CCCc3ccccc32)c1 (stereo not given)	2	-17	106	111
CC1(COc2ccc(CC3SC(=O)NC3=O)cc2)CCCCC1 (stereo not given)	-15	2	103&101	103&102
c1ccc2c(c1)CCC/C2=N\NC1=NCCN1	28	-15	98	90
CC(C)(C)C1(O)C=C(O)C(=O)N1c1cccnc1 (stereo not given)	.	53*	103	107
O=C(O)C(NS(=O)(=O)c1ccccc1)C(O)c1ccccc1 (stereo not given)	-10	0	102	103
NS(=O)(=O)c1ccc(NC(=O)Cc2ccccc2F)cc1	142	-22	105	101
Cc1cc(N/N=C/C2=C(N3CCOCC3)C(=C\c3ccc(Cl)cc3Cl)/CC2)n[nH]1	-1	-69	105	115
O=C(O)c1ccc(C(F)(F)F)cc1C(F)(F)F	-5	-6	105	108
CN1/C(=C2\C=NN(c3ccccc3)P2(=O)N2CCCC2)C(C)(C)c2ccccc21 (stereo not given)	20	-42	106	110

Compound profiles (already shown).
Record of `CC(=O)N1CCN(c2ccc(Oc3ccc(C(F)(F)F)cn3)cc2)CC1` : MbtI inh: -1; Mtb MenB inh: 1; Polio RdRp inh: 103; Polio RdRp inh intensity: 112
Record of `CCN(C(=O)CCc1nc(-c2ccccc2F)no1)c1ccc(C)c(C)c1` : MbtI inh: -3; Mtb MenB inh: -30; Polio RdRp inh: 104; Polio RdRp inh intensity: 105
Record of `CCOC(=O)C1=C(C)N(c2ccc(OC)cc2)C(=O)/C1=C\c1ccco1` : MbtI inh: -6; Mtb MenB inh: 3; Polio RdRp inh: 78; Polio RdRp inh intensity: 129

Next part:
SMILES	MbtI inh	Mtb MenB inh	Polio RdRp inh	Polio RdRp inh intensity
O=C(NCc1cccs1)c1cnc2sccn2c1=O	-4	8	100	105
CC1(C)CC(=O)C(C2c3ccccc3Oc3ccccc32)C(=O)C1	-2	-4	100	94
N#Cc1ccc(C=Nc2cccc3c(=O)[nH][nH]c(=O)c23)cc1	67	-121	100	103
CC(C)(C)c1ccc(S(=O)(=O)N2CCCC(C(=O)O)C2)cc1 (stereo not given)	-20	4	101	102
O=C(OCc1ccc2c(c1)OCO2)c1c(F)cccc1Cl	-9	.	102	97
Cc1ccc2c(c1)N(Cc1cccc(C(F)(F)F)c1)C(=O)C(C)O2 (stereo not given)	-9	3	101	101
O=C(O)CNC(=O)c1ccc(Cl)c(Cl)c1	-14	.	102	106
COc1nc(SC)nc2sc3c(c12)CCC3	-8	-3	101	102
N#CCCCn1c(=O)oc2ccccc21	-2	-13	100	109
Cc1ccccc1Oc1ccc(CN)cc1	0	-44	102	100
C=CCN(c1ccc(C(=O)Nc2ccc(OC)cc2OC)cc1)S(C)(=O)=O	1	7	102	106
OC(CN1CCN(c2ccc(C(F)(F)F)cn2)CC1)c1ccc(F)cc1 (stereo not given)	11	-63	100	97
OCC1CCCN1Cc1ccccc1C(F)(F)F (stereo not given)	-4	-6	102	104
O=C1CC(c2ccco2)CC(O)=C1C=NCC1NCCc2ccccc21 (stereo not given)	.	-10	109	112
Cc1c(C(=O)N2CCN(C)CC2)oc2c1C(=O)CC(C)(C)C2	-2	-3	101	107
Cn1c(Cc2cccs2)nnc1SCc1ccc(C(=O)Nc2ccccc2)cc1	-5	-27	116	111
COc1ccc(N2C(=O)C3SC(N)=C(C#N)C(c4ccco4)C3C2=O)cc1 (stereo not given)	86	-51	95	107
CNC(=S)N(CCCn1ccnc1)Cc1c(F)cccc1Cl	8	9	100	102
Cc1ccc(/C=N/N2C(C)CCCC2C)cc1 (stereo not given)	1	10	105	109
O=C(COC(=O)C1CC1)NCc1ccccc1	-3	-12	103	100
CN(C(=S)SCc1ccccc1)c1ccccc1	.	-44	101	103
COc1ccccc1N1CCN(S(=O)(=O)c2c(C)ccc3nsnc23)CC1	.	0	106	107
C/C(CCc1ccc2c(c1)OCO2)=N\N1C(=N)SC(C(=O)Nc2ccc(C(=O)O)cc2)CC1=O (stereo not given)	.	-11	104	107
COc1cccc2cc(C(=O)NCCc3c(C)[nH]c4ccc(OC(F)(F)F)cc34)c(=O)oc12	.	-1	107	110
O=c1c2cnc(NCc3cccnc3)nc2ccn1Cc1cccnc1	26	6	100	102
O=C(CCn1c(=O)c2cccn2c2ccc(F)cc21)NCc1ccccc1	45	0	101	103
O=C(O)c1n[nH]c2c1CCCCC2	10	1	102	102
CCCc1cc(N2CCN(c3ccccc3)CC2)n2c(nc3ccccc32)c1C#N	-2	-6	103	104
O=C(OCC1CC(c2ccccc2)=NO1)c1ccc(Cl)cc1 (stereo not given)	-4	-9	102	104
CCOC(=O)N1CCC(N2C(=O)c3ccc(C(=O)O)cc3C2=O)CC1	2	-2	103	104

5 entries already listed, arranged by length of the SMILES, lowest first.
SMILES	MbtI inh	Mtb MenB inh	Polio RdRp inh	Polio RdRp inh intensity
O=C(COC(=O)C1CC1)NCc1ccccc1	-3	-12	103	100
O=c1c2cnc(NCc3cccnc3)nc2ccn1Cc1cccnc1	26	6	100	102
O=C(CCn1c(=O)c2cccn2c2ccc(F)cc21)NCc1ccccc1	45	0	101	103
Cn1c(Cc2cccs2)nnc1SCc1ccc(C(=O)Nc2ccccc2)cc1	-5	-27	116	111
CCCc1cc(N2CCN(c3ccccc3)CC2)n2c(nc3ccccc32)c1C#N	-2	-6	103	104

Further results follow:
SMILES	MbtI inh	Mtb MenB inh	Polio RdRp inh	Polio RdRp inh intensity
CCOC(=O)N1CC=C2C(C#N)=C(N)C(C#N)(C#N)C(c3ccc(CC)cc3)C2C1 (stereo not given)	-1	3	100	106
Cn1c(SC(C#N)Cc2ccccc2)nnc1-c1ccc(C(C)(C)C)cc1 (stereo not given)	-4	-53	102	98
Cc1ccc(S(=O)(=O)NCCc2nnc3ccc(SCC(N)=O)nn23)cc1	21	4	100	102
CC(Oc1ccc(C(C)(C)C)cc1)C(=O)O (stereo not given)	-9	-18	97	104
N#Cc1cc2c([nH]c1=S)CCCC2	102*	-217	98	101
CN1CC(CNC(=O)OCc2ccccc2)CC2c3cccc4c3c(cn4C)CC21 (stereo not given)	-11	3	99	103
NC(=O)COc1coc(CN2CCN(c3ccccc3)CC2)cc1=O	15	-17	100	109
C=CCNc1nc(NCc2ccco2)nc(OCC)n1	-5	-8	104	101
CN(C(=O)Cn1ncc2c1-c1ccccc1OC2)c1ccccc1F	0	12	99	101
CCC(C)N1Cc2ccccc2N(CC)C1c1ccccc1F (stereo not given)	9	4	103	102
O=C1CCC(C(=O)N2CCN(c3ccc(F)cc3)CC2)=NN1	-8	3	102	101
COC(=O)c1c(N)oc2c(-c3cccc(C(F)(F)F)c3)c3c(C(=O)OC)c(N)oc3cc12	.	-10	103	101

Random excerpt: 4 entries already listed, in no set order.
SMILES	MbtI inh	Mtb MenB inh	Polio RdRp inh	Polio RdRp inh intensity
O=C1CCC(C(=O)N2CCN(c3ccc(F)cc3)CC2)=NN1	-8	3	102	101
CN(C(=O)Cn1ncc2c1-c1ccccc1OC2)c1ccccc1F	0	12	99	101
C=CCNc1nc(NCc2ccco2)nc(OCC)n1	-5	-8	104	101
CN1CC(CNC(=O)OCc2ccccc2)CC2c3cccc4c3c(cn4C)CC21 (stereo not given)	-11	3	99	103

Screens (PubChem)
